# High-throughput results (PubChem BioAssay)
# H5N1 CPE = MDCK cell protection from H5N1 avian flu; cytopathic effect, luminescence, 72 h; hits give high values; no value below 0 was filed and about half of the inactive calls have no number; reference of the scale not given here; inhibition, % at 50 µM; 96,000 tested, 0.07% active; AID 740; in the data active = inhibition above about 25%
# * hit, by the source's call; i = inactive. The list is partial; count on the stated rates, not on these rows.
SMILES,H5N1 CPE
N#CCSc1nc2cc(C(=O)N3CCCC3)ccc2c(=O)n1Cc1ccccc1,2.1
CC1=C(C#N)C(NC(=O)C2CC2)(C(F)(F)F)C(=O)N1 (configuration not stated),0.1
O=C1Nc2ccccc2C(O)(C(=O)NCc2ccco2)N1c1ccc(Cl)cc1 (configuration not stated),0.6
Cc1cc(/C=N\NC(=O)c2cccs2)c(C)n1-c1ccc2ncccc2c1,0.1
CC(C)c1[nH]nc2c1C(Cc1ccccc1)C(C#N)=C(N)O2 (configuration not stated),i
CC(C)(C)S(=O)(=O)c1c(C(=O)O)cccc1C(=O)O,i
CCOC(=O)c1nc2nc(C)c(Cl)c(=O)n2[nH]1,i
O=C(COc1ccccc1)Nc1ccc(CSc2ccccc2)cc1,0.3
Cc1ccc(N=C/C(C(=O)C(F)(F)F)=C(\O)c2cccs2)cc1,i
COc1ccc(OC)c(S(=O)(=O)N2CCC(C(=O)NCC3CCCO3)CC2)c1 (configuration not stated),i
COc1cc2c(cc1OC)C1=C(C#N)COCN1CC2,0.8
CC(C)(C)c1csc(NC(=O)Cn2cnc3ccccc3c2=O)n1,i
Cc1cc(C)cc(OCC(=O)O/N=C(\N)c2ccccn2)c1,i
Cc1cc(NC(=O)c2ccc3c(c2)C(=O)N(Cc2cccnc2)C3=O)no1,i
Cc1cc(C)cc(OCCCOc2cccc3cccnc23)c1,0.1
CCCn1c(C)cc(C(=O)CN2C(=O)c3cccc(N)c3C2=O)c1C,0.8
O=S(=O)(NCC1CCCO1)c1cc(Cl)ccc1Br (configuration not stated),0.7
CC(=O)c1c(C)nc2cc(Cl)ccc2c1N,0.7
CCn1c(SCC(=O)N(Cc2ccccc2)C2CCS(=O)(=O)C2)nc2ccccc2c1=O (configuration not stated),2.7
COc1ccc(N(CC(O)Cn2c3ccccc3c3ccccc32)S(=O)(=O)c2ccccc2)cc1 (configuration not stated),i
Cc1[nH]c(=O)[nH]c(=O)c1/C=N/NC(=O)[C@H](C)NC(=O)OC(C)(C)C,i
CCn1c(SCC(=O)NNC(=O)Cc2ccccc2)nnc1-c1ccccc1,0.1
CC(c1ccccc1)n1c(-c2ccncc2)n[nH]c1=S (configuration not stated),1.7
COc1cccc(OCCCN2CCCCC2)c1,0.5
CCOC(=O)c1c(C)[nH]c(C(=O)C(C)OC(=O)c2cccc(OCc3c(C)noc3C)c2)c1C (configuration not stated),9.8
CC1CCN(C(=O)c2cc(-c3ccc(Cl)c(Cl)c3)on2)CC1,i
CCc1nc(SCC(=O)NCC2CCCO2)c2oc3ccccc3c2n1 (configuration not stated),i
O=C(c1ccc2c(c1)N(Cc1ccccc1)C(=O)CS2)N1CCOCC1,1.4
O=C(NCCCN1CCOCC1)c1cc(-c2ccc(O)cc2)on1,i
Cc1nnc(Sc2c(-c3ccccc3)c3ccc(Cl)cc3[nH]c2=O)s1,4.3
Cc1cccc(OCCCC(=O)O)c1C,i
CCOC(=O)c1sc(-c2ccc(F)cc2)cc1N,i
CC(C)C(=O)N1CCN(c2ccccc2NC(=O)Cc2ccc(Cl)cc2)CC1,i
Cc1csc(OCc2ccc(C#N)cc2)n1,1.1
COc1ccc(OCC(=O)Nc2ccc3c(c2)nc(CCN2CCOCC2)n3C)cc1,0.9
O=C1C(Oc2ccccc2)C(c2cccs2)N1Cc1ccc2c(c1)OCO2 (configuration not stated),0.7
COc1ccc(-c2noc(CSc3nnc(CCc4ccccc4)n3-c3ccccc3)n2)cc1OC,i
CCOC(=O)c1c(C)c(C#N)c2c3ccccc3ccn12,i
Cn1c(=O)oc2cc(S(=O)(=O)N3CCC(C(=O)N4CCc5ccccc5C4)CC3)ccc21,1.4
COc1ccc(C(=O)N2CCCC(c3nc(-c4ccc(OC)c(OC)c4)no3)C2)c(OC)c1 (configuration not stated),i
Cc1ccc2ccc(S(=O)(=O)n3nc(C)cc3C)cc2c1,0.5
CCCC(=O)N1CCN(c2ccc(NC(=O)c3ccccc3)cc2)CC1,1.2
CC(C)CCNC(=O)NC(=O)CSc1nnc2ccccn12,i
CCN=C1SCC(=O)N1c1ccc(OC)cc1,0.6
COC(=O)Cc1ccc(NC(=S)NCCCO)cc1,0.9
CC1CCN(c2cc(N3CCOCC3)c(F)cc2[N+](=O)[O-])CC1,1.1
COc1ccc(-c2nc3ccccc3n2Cc2ccccc2)cc1,i
O=C(NC(=O)N1CCN(c2cccc(Cl)c2)CC1)c1ccccc1,i
O=C(CN1CCN(S(=O)(=O)c2ccc(Cl)cc2)CC1)Nc1ccc2c(c1)OCO2,5.7
COC(=O)CN(c1ccc(C)cc1)S(=O)(=O)c1ccc2c(c1)n(C)c(=O)c(=O)n2C,1.5
Cc1ccc(C(C(=O)NC(C)(C)C)N(C(=O)c2csnn2)c2cccc(F)c2)o1 (configuration not stated),0.0
C#CCOC(=O)c1ccccc1C(=O)N(CC)CC,0.1
CCCc1oc(C(=O)O)cc1CN1CCOCC1,i
COc1ccnc(NCc2ccc(Cl)cc2)c1C#N,i
CC(=O)c1ccc(-n2c(C)ccc2-c2ccccc2)cc1,i
Cc1cc(N2CCN(c3nnnn3-c3ccccc3)CC2)n2ncnc2n1,3.9
CCOC(=O)CN(C(=O)Cn1nnc2ccccc21)C(C(=O)NCCOC)c1ccccc1C (configuration not stated),1.2
COc1ccc(S(=O)(=O)N2CCC(C(=O)Nc3ccc4c(c3)OCCO4)CC2)cc1OC,i
COc1nnc(-c2ccc(N3CCOCC3)c(NC(=O)c3ccc(C)cc3)c2)c2ccccc12,2.6
CC(C)Oc1ccc(C(=O)Nc2ccc(N(C)C)cc2)cc1,0.3

# Following part.
SMILES,H5N1 CPE
CCOc1ccccc1-n1c(O)c(C=NCc2ccc3c(c2)OCO3)c(=O)[nH]c1=O,i
O=C(CSc1ncnc2c1cnn2Cc1ccccc1)Nc1ccc2c(c1)OCCO2,0.1
C=CCn1c(N)c(C(=O)N2CCN(C)CC2)sc1=S,0.4
CCN(CC)CCNC(=O)c1ccc2c(c1)ncn2C1CCCCC1,i
N/N=c1\sc2ccccc2n1-c1ccccc1,i
O=C(Nc1nnc(-c2ccccc2Cl)o1)c1cccnc1,i
CCCCNC(=O)CSc1nc2ccccc2c(=O)n1CC1COc2ccccc2O1 (configuration not stated),i
Cc1sc2c(c1C)c(=O)n(-c1ccccc1)c1nncn21,2.1
O=C(c1ccco1)N1CCN(C(=O)C2(S(=O)(=O)c3ccc(Cl)cc3)CC2)CC1,i
c1ccc(Cn2nnc3c(N4CCCC4)ncnc32)cc1,0.0
CN(Cc1ccccc1)C(=O)CC(c1ccccc1)c1cc(Cl)ccc1O (configuration not stated),i
O=S(=O)(NC1CCCCC1)c1ccc(Cl)s1,i
CCCC(=O)Nc1nc2nc(-c3ccccc3)cc(=O)n2[nH]1,0.5
Cn1cccc1Cc1nnc(SCC(N)=O)n1CCc1ccccc1,0.1
COc1ccc(Cl)cc1C(=O)N1CCN=C1SC,0.9
O=C(COc1ccc(F)cc1Br)N1CCc2ccccc21,i
COc1ccc2nc(N3C(=O)CC(Cc4cc(C)cc(C)c4)C3=O)sc2c1 (configuration not stated),0.3
CCOC(=O)CCCSc1nc2sc(C)c(C)c2c(=O)[nH]1,3.1
O=C(NCCc1ccccn1)c1cc(C(=O)C2CCCCC2)c[nH]1,i
O=[N+]([O-])c1ccc(Sc2cccc3cccnc23)c([N+](=O)[O-])c1,4.5
CC(NS(=O)(=O)c1ccccc1)C(=O)NCc1ccco1 (configuration not stated),i
Cc1ccc(C(=O)N2CCN(C(=O)N3CCOCC3)CC2)cc1,i
COc1cc2c(cc1NC(=O)c1ccc3c(c1)OCO3)oc1ccccc12,i
Cc1ccc(N2CC(C(=O)N3CCN(c4ccccc4)CC3)CC2=O)cc1 (configuration not stated),i

# Seven entries from above, ordered by molar mass, low to high:
SMILES,H5N1 CPE
CCCC(=O)Nc1nc2nc(-c3ccccc3)cc(=O)n2[nH]1,0.5
Cc1ccc(C(=O)N2CCN(C(=O)N3CCOCC3)CC2)cc1,i
CCOC(=O)CCCSc1nc2sc(C)c(C)c2c(=O)[nH]1,3.1
O=C(COc1ccc(F)cc1Br)N1CCc2ccccc21,i
COc1cc2c(cc1NC(=O)c1ccc3c(c1)OCO3)oc1ccccc12,i
Cc1ccc(N2CC(C(=O)N3CCN(c4ccccc4)CC3)CC2=O)cc1 (configuration not stated),i
COc1ccc2nc(N3C(=O)CC(Cc4cc(C)cc(C)c4)C3=O)sc2c1 (configuration not stated),0.3

# (next part)
SMILES,H5N1 CPE
Cc1noc2ncnc(Oc3ccc(F)cc3)c12,i
CN(CC(=O)N1CCCc2c1c(=O)oc1ccc(O)cc21)Cc1ccccc1,0.6
CCN(Cc1ccncc1)S(=O)(=O)c1ccc(C(C)=O)cc1,3.1
O=C(CSc1nnc(C2CCCCC2)n1-c1ccccc1)NCc1ccco1,0.6
Cn1c(=O)[nH]c(=O)c2c1nc(Br)n2CCOc1ccccc1,0.4
CC1(C)CC(=O)c2cnc(NCc3ccco3)nc2C1,15
O=C(NCC(c1cccnc1)N1CCN(c2ccccc2)CC1)c1ccc2c(c1)OCO2 (configuration not stated),i
CCC(c1nc2ccccc2c(=O)n1-c1cccnc1)N1C(=O)c2ccccc2C1=O (configuration not stated),0.3
Cc1cc(C)c2cccc(NC(=S)NC(=O)c3ccccc3)c2n1,i
O=C(COC(=O)C12CC3CC(CC(C3)C1)C2)Nc1ccc(OC(F)F)cc1,i
O=C(COc1ccccc1)NCCSCc1ccco1,i
COc1ccc(N2CCN(C(=S)Nc3cc(C)ccc3C)CC2)cc1,0.4
CN(C(=O)CSc1nc(-c2ccccc2)cs1)C1CCS(=O)(=O)C1 (configuration not stated),0.4
O=C(C1CC(c2ccc(F)cc2)=NO1)N1CCCCC1 (configuration not stated),i
CCOC(=O)COc1ccc(S(=O)(=O)N2CCN(c3ccc(F)cc3)CC2)cc1,0.6
CC(=O)Nc1ccc(S(=O)(=O)NC(C(=O)O)C2=CCC=CC2)cc1 (configuration not stated),0.1
Cc1nc2ccccc2c(=O)n1/N=C/c1c(O)ccc2oc3c(c12)CCCC3,3.7
CCCCS(=O)(=O)/C=C\C1C2C=CC(C2)C1S(=O)(=O)CCCC (configuration not stated),i
CCN(CCNC(=O)C1CCN(Cc2nc(-c3ccc(Cl)cc3)oc2C)CC1)c1ccccc1,i
COc1ccc(N(C(C)C(=O)NC2CCCCCC2)S(C)(=O)=O)cc1 (configuration not stated),0.9
CCn1c(CNC(=O)c2ccc3c(c2)OCO3)nnc1SCC(=O)Nc1cc(C)ccc1OC,i
COC(=O)c1cc(NC(=O)CN(c2ccccc2OC)S(=O)(=O)c2ccccc2)ccc1Cl,0.1
Cc1ccc(S(=O)(=O)N(C)CCCC(=O)n2nc(C)cc2C)cc1,1.2
COc1ccc(Cn2c(CCC(=O)O)nc3cccnc32)cc1,i

# Shown as tab-separated lines: part of the list above
canonical_smiles	H5N1 CPE
Cc1ccc(S(=O)(=O)N(C)CCCC(=O)n2nc(C)cc2C)cc1	1.2
O=C(C1CC(c2ccc(F)cc2)=NO1)N1CCCCC1 (configuration not stated)	i
CCCCS(=O)(=O)/C=C\C1C2C=CC(C2)C1S(=O)(=O)CCCC (configuration not stated)	i

# The list continues.
SMILES,H5N1 CPE
COCCCn1c(SCc2cccc(C(F)(F)F)c2)nc2cc(OC)c(OC)cc2c1=N,i
CN(C)c1nc(C(=O)OCCO)nc(N(C)C)n1,0.3
Cc1c(NC(=O)CSc2ccc(Cl)cc2)cccc1-c1nc2ncccc2o1,i
CNc1nc(C)c(C#N)c(-c2ccccc2)c1C(C)=O,0.9
CC(=O)OC1N=C(c2ccccc2)c2ccccc2NC1=O (configuration not stated),i
COc1ccc(NC(=O)CSc2nc3ccccc3c(=O)n2-c2ccc3c(c2)OCO3)c(OC)c1,0.0
N=C1/C(=C\c2ccc(SCc3ccco3)o2)C(=O)N=C2SC=NN12,6.7
Cn1ncc(C#N)c1/N=C/N1CCCCCC1,3.7
Cc1csc(NC(=O)Cc2coc3cc(C)c(C(C)C)cc23)n1,i
Cc1onc(-c2c(F)cccc2Cl)c1C(=O)Nc1c(C)n(C)n(-c2ccccc2)c1=O,i
CC1(C)NC(=O)N(CCOc2cccc(Oc3ccccc3)c2)C1=O,i
CN(Cc1ccccc1)S(=O)(=O)c1ccc(NS(C)(=O)=O)cc1,0.3

# Grouped by structure: the compounds so far containing a nitro group on carbon (2)
SMILES,H5N1 CPE
CC1CCN(c2cc(N3CCOCC3)c(F)cc2[N+](=O)[O-])CC1,1.1
O=[N+]([O-])c1ccc(Sc2cccc3cccnc23)c([N+](=O)[O-])c1,4.5

# Carrying on.
SMILES,H5N1 CPE
O=c1[nH]c(C2CCCN(S(=O)(=O)c3ccccc3)C2)nc2c1nnn2Cc1ccccc1 (configuration not stated),6.2
CCc1ccc(-c2cn(-c3nc(C)cc(C)n3)c(=N)o2)cc1,0.6
Cc1ccc(SCCNS(=O)(=O)c2ccc3c(c2)OCCO3)cc1,i
O=C(CSc1ccc2c(c1)OCCO2)Nc1ccc(Cl)cn1,0.4
COC(=O)c1ccc2c(c1O)C(=O)c1ccccc1C2=O,i
COC(=O)CSc1nc(C)c(Oc2ccccc2)c(=O)[nH]1,i
C=COCCn1c(=N)n(CCC)c2ccccc21,i
CCOc1cc(CNc2ccc3[nH]c(=O)[nH]c3c2)ccc1OCC(=O)NC(C)(C)C,i
COc1ccc(N2C(=O)NC3CC2(C)Oc2ccccc23)cc1OC (configuration not stated),0.9
N#Cc1nc(-c2ccco2)oc1NCCc1ccccc1,i
CCOC(=O)c1cc2c(=O)n3cccc(C)c3nc2n(C)c1=N,1.0
Cc1ccc(S(=O)(=O)NCCOc2nc(N(C)C)nc(N3CCOCC3)n2)cc1,i
COCC(C)NC(=O)c1cccc(Cl)c1 (configuration not stated),i
CCNC(=S)NNC(=O)Cc1ccccc1,0.3
COC(=O)[C@H](Cc1ccccc1)NC(=O)Nc1ccc(C)cc1,1.5
